Screening data (PubChem)
KCNQ2 block = KCNQ2 channel blockers in CHO-K1 cells – cell-based, FluxOR thallium flux, B-score, primary screen (AID 2156) | O88943 | 20 min; hits give low values; only compounds with negative scores are shown here; some inactives read as strong as hits | B-score at 10 µM | 310,000 tested, 1.1% active;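 active = fluorescence ratio B-score at most minus 3 library SDs, with starting brightness B-score within 2 library SDs, cut at about -5.5 in these data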
Target sequence (O88943 whole entry, looked up): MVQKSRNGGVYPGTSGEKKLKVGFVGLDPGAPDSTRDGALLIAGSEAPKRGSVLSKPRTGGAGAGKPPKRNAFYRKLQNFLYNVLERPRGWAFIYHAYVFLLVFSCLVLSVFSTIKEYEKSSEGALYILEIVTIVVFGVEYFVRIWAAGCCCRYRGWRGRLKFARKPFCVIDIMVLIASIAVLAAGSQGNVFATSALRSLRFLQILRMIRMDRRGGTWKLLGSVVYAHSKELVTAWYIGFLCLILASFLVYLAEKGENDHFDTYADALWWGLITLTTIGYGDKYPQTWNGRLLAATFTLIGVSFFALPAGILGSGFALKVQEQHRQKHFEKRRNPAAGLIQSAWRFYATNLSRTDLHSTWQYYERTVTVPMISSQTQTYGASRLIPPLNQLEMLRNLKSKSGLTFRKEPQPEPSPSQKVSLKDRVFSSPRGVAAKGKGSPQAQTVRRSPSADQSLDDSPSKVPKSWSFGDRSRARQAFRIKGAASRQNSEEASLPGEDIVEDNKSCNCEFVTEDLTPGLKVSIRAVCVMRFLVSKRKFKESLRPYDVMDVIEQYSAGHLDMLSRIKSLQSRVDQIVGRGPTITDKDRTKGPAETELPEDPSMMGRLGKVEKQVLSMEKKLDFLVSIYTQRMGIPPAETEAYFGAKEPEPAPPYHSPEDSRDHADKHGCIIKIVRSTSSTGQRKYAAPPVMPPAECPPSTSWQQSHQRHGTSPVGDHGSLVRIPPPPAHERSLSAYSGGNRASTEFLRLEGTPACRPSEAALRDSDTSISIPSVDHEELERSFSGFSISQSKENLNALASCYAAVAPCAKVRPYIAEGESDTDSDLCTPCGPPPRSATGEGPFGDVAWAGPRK
KCNQ2 block baseline = further read-out of KCNQ2 block, marked with its call; B-score; measured here: initial fluorescence intensity artifact check;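 brightness before thallium and not channel activity; 0 = typical well and far values either way flag optical interference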
An asterisk follows results filed as active; i = inactive. Only part of the results is shown; rates above refer to the full screens.

canonical_smiles,KCNQ2 block,KCNQ2 block baseline
COc1ccc(OC)c(C(=O)c2ccc(C(=O)Nc3ccc(NC(C)=O)cc3)cc2)c1,i,-0.31
O=C(/C=C/c1ccccc1)c1c[nH]c2ccccc12,i,0.67
COc1ccccc1-c1nnc(NC(C)=O)s1,i,-0.02
COc1ccc(OC)c(S(=O)(=O)N2CCC(C(=O)NC3CCCCC3)CC2)c1,i,1
O=C(N/N=C/c1c[nH]c2ccccc12)c1ccc(Cl)cc1,i,0.7
O=c1oc2cc(Br)ccc2n1Cc1ccccc1,i,-0.2
O=C(CCN1C(=O)/C(=C/c2cccs2)SC1=S)Nc1ccc(O)cc1,i,0.12
Cc1csc(=Nc2ccccc2)n1Cc1ccco1,i,1
COc1ccc(C(=O)NC(=S)NNC(=O)Cc2cccs2)cc1,i,-1
O=C(NCCCN1CCCCCC1)c1cc2c(=O)oc3ccccc3c2s1,i,0.3
CCOC(=O)C1CCN(CC(O)COCc2ccc3c(c2)OCO3)CC1 (stereo unspecified),i,0.83
O=C(CCc1ccccc1)Nc1nc2c(F)cc(F)cc2s1,i,-0.87
Cc1ccc(C2=NOC(C)(c3nnc(-c4ccc(Cl)cc4)o3)C2)cc1 (stereo unspecified),i,0.49
COc1cccc(/C=C/C(=O)OCC(=O)NCc2ccc(Cl)cc2)c1,i,2.4
Cc1cc(C)n(-c2cc(N3CCN(C(=O)c4cccc(Br)c4)CC3)ccc2[N+](=O)[O-])n1,i,-1.5
COc1ccc(C(=S)N2CCN(c3ccccc3C)CC2)cc1,i,-0.43
CCc1nnc(NC(=O)CN2C(=O)c3ccccc3C2=O)s1,i,0.03
CCOC(=O)c1c(C)[nH]c(C)c1S(=O)(=O)N1CCN(c2ccc(F)cc2)CC1,i,-0.97
O=C(Nc1nncs1)c1ccc(S(=O)(=O)c2ccccc2)cc1,i,-0.93
Cn1c(SCC(=O)NCCc2ccccc2)nnc1C1CCCCC1,i,0.74
CCc1ccc(C(c2c(C)nn(-c3ccccc3)c2N)c2c(C)nn(-c3ccccc3)c2N)cc1,i,0.9
CC1(OC(=O)c2cnc3ccccc3n2)C(=O)C=C2C=C(C3CC3)OC=C2C1=O (stereo unspecified),i,5.4
O=C1CC(N2CCN(C(c3ccccc3)c3ccccc3)CC2)C(=O)N1Cc1ccc(N2CCCC2=O)cc1 (stereo unspecified),i,-0.37
CC(=O)Nc1cccc(C(=O)OC(C(=O)c2ccc(C)cc2)c2ccccc2)c1 (stereo unspecified),i,-0.66
Cc1ccc(CN(C)C(=O)C2CCCN2C(=O)c2cccs2)o1 (stereo unspecified),i,-0.55
CCOP(=O)(CN(CC)C(=O)c1ccccc1Br)OCC,i,-0.53
Cc1c(Cl)cnc(NC(=O)CSc2nncs2)c1Cl,i,0.32
CC1=CC(=O)C=C(C)C1=NOC(=O)c1cccc([N+](=O)[O-])c1,i,6.3
N#Cc1ccc(OCC(=O)NC2=NCCS2)cc1,i,2.5
CC(C)N(Cc1nc(-c2ccc(Cl)cc2)no1)C(=O)C(c1ccccc1)c1ccccc1,-6.2*,-1.5*
O=C(Nc1nc(-c2cc(Cl)sc2Cl)cs1)c1cccs1,i,-0.24
COc1ccccc1/C=C/C=C1\Oc2c(ccc(O)c2CN(C)C)C1=O,i,27
COCCN1CCn2c(nc3cc(NC(C)=O)ccc32)C1,i,0.99
Cc1c(NC(=O)C(C)OC(=O)[C@@H](NC(=O)c2ccccc2)C(C)C)c(=O)n(-c2ccccc2)n1C (stereo partly specified),i,0.25
C/C(=C\C(=O)c1ccccc1)Nc1cccc(O)c1,i,-1.5
Cc1cc(C)cc(NC(=O)c2cccnc2)c1,i,1.6
Nc1cc(-c2ccc(Cl)cc2)nn1S(=O)(=O)c1ccc(Cl)cc1,i,-1.6
CCC(C)NCC(O)(c1ccc(Cl)cc1)c1ccc(Cl)cc1 (stereo unspecified),i,0.01
COc1cc(C(=O)Nc2c(C(=O)N3CCOCC3)oc3ccccc23)cc(OC)c1OC,i,2
COc1ccc(S(=O)(=O)N2CCN(Cc3ccc(OC)c(OC)c3)CC2)cc1,i,3.6

Part of the list above, with each value named:
CC(C)N(Cc1nc(-c2ccc(Cl)cc2)no1)C(=O)C(c1ccccc1)c1ccccc1
- KCNQ2 block: -6.2*
- KCNQ2 block baseline: -1.5*

O=C(Nc1nc(-c2cc(Cl)sc2Cl)cs1)c1cccs1
- KCNQ2 block: i
- KCNQ2 block baseline: -0.24

Next compounds follow:
canonical_smiles,KCNQ2 block,KCNQ2 block baseline
COc1ccc(CCNc2cc(C)nc3c(-c4ccccc4OC)cnn23)cc1OC,i,-1.2
CCCCCCn1nc(C(=O)N(CCOC)c2c(N)n(CCCC)c(=O)[nH]c2=O)c2ccccc2c1=O,i,-0.29
O=C(O)c1cccc(Nc2ccc3nonc3c2[N+](=O)[O-])c1,i,-2.3
Cn1cc(Br)c(C(=O)NNC(=O)Cc2ccc(Cl)cc2)n1,i,1.2
O=C(NNC(=O)c1ccc([N+](=O)[O-])cc1)c1ccncc1,i,3.4
Cc1nn(C)c(C(=O)NNC(=S)NC2CCCCC2)c1Br,i,-0.28
CCC1(C)NC(=O)N(CC(=O)Nc2sc3c(c2C(=O)OC)CCCCC3)C1=O (stereo unspecified),i,2.8
COc1ccc(CN2CCN(Cc3cccc4nonc34)CC2CCO)c(C)c1C (stereo unspecified),i,-1.7
O=C(NCCCSc1ccccc1)c1cc(Br)ccc1O,i,-1.2
COc1cccc(CNc2nc3nc(C)cc(=O)n3[nH]2)c1,i,-0.43
COc1ccc(S(=O)(=O)N2CCN(CC(=O)Nc3ccccc3Cl)CC2)cc1,i,-0.04
Cc1ccc(-n2c(SCC(=O)Nc3ccc(N4CCOCC4)cc3)nc3ccccc3c2=O)cc1,i,-2.6
CC(C)OC(=O)/C(=C/c1ccco1)c1ccccc1,i,-0.94
COc1cc(OC)c2c(-c3ccccc3)cc(=O)oc2c1C(CCN1CCCCC1)c1ccc2c(c1)OCO2 (stereo unspecified),i,0.32
O=C(COC(=O)CCSc1ccc(Cl)cc1)NCc1ccco1,-8.1*,2.3*
Cc1cc(O)c2c(CN3CCN(Cc4ccccc4)CC3)cc(=O)oc2c1,i,0.92
COc1ccc(NS(=O)(=O)c2ccc3nc(COc4ccc5ccccc5c4)[nH]c3c2)cc1,i,0.08
C=CCNC(=S)NN=C1CCCCCCC1,i,-0.65
O=C(NCc1ccc(F)cc1)C1CCN(C(=O)NCc2ccccc2)CC1,i,1.3
COc1ccccc1NC(=O)CN(Cc1ccco1)C(=O)c1ccc(-n2nc(C)cc2C)cc1,i,-3.2

4 records drawn at random from the list so far:
canonical_smiles,KCNQ2 block,KCNQ2 block baseline
COc1cc(OC)c2c(-c3ccccc3)cc(=O)oc2c1C(CCN1CCCCC1)c1ccc2c(c1)OCO2 (stereo unspecified),i,0.32
O=C(NCCCSc1ccccc1)c1cc(Br)ccc1O,i,-1.2
COc1ccc(S(=O)(=O)N2CCN(CC(=O)Nc3ccccc3Cl)CC2)cc1,i,-0.04
COc1ccc(CN2CCN(Cc3cccc4nonc34)CC2CCO)c(C)c1C (stereo unspecified),i,-1.7

Sorted by the number under KCNQ2 block baseline (ascending): three from the list above.
canonical_smiles,KCNQ2 block,KCNQ2 block baseline
CC(C)OC(=O)/C(=C/c1ccco1)c1ccccc1,i,-0.94
COc1cc(OC)c2c(-c3ccccc3)cc(=O)oc2c1C(CCN1CCCCC1)c1ccc2c(c1)OCO2 (stereo unspecified),i,0.32
O=C(NNC(=O)c1ccc([N+](=O)[O-])cc1)c1ccncc1,i,3.4

Next section:
| canonical_smiles | KCNQ2 block | KCNQ2 block baseline |
| --- | --- | --- |
| CC/C(=N\NC(=O)c1cc(C)nc2ccccc12)c1ccc(C)s1 | i | 1.1 |
| COc1ccccc1/C=C/C(=O)OCCN1CCOCC1 | i | 0.45 |
| O=c1c2ccccc2[nH]c(=S)n1CC1CCCO1 (stereo unspecified) | i | -0.52 |
| OCCCNCc1ccc(N(c2ccccc2)c2ccccc2)cc1 | i | 0.75 |
| c1ccc(N2CCN(c3nc(NCc4ccco4)c4ccccc4n3)CC2)cc1 | i | 0.72 |
| CC(=O)N(C(C)=O)N1C(=O)C2C3c4ccccc4C(c4ccccc43)C2C1=O (stereo unspecified) | i | -2.5 |
| CCNC(=O)CN(c1ccc(Br)c(C)c1)S(C)(=O)=O | i | 0.3 |
| CC(c1ccccc1)N1CC(C(=O)N2CCN(c3ccc(F)cc3)CC2)CC1=O (stereo unspecified) | i | 1.7 |
| NNC(=O)[C@@H]1C[C@@H]1c1ccccc1 | i | 0.65 |
| Cc1ccc2cc(/C=C3\N=C(c4ccccc4)OC3=O)c(N3CCOCC3)nc2c1 | i | 6.1 |
| COc1ccc(/C=C(/NC(=O)c2ccccc2)c2nc3ccccc3[nH]2)cc1OC | i | -0.93 |
| O=C(NCc1ccccc1Cl)c1ccc2c(c1)OCO2 | i | 0.27 |
| BrC(=C\c1ccccc1)/C=N/N1CCN(c2ccccc2)CC1 | i | -1.5 |
| O=C(OCC(=O)N1CCCC1=O)c1ccc(O)cc1O | i | -0.01 |
| COCCn1nnnc1C(c1cccc(C#N)c1)N1CCCCCC1 (stereo unspecified) | i | 1.7 |
| Cc1nnc(NC(=O)c2ccc(S(=O)(=O)N(C)Cc3ccccc3)cc2)o1 | i | -0.07 |
| CC(=O)Nc1ccc(NC(=O)COC(=O)CCCc2c[nH]c3ccccc23)cc1 | i | -1.6 |
| COc1ccc(C2=NN(C(=O)c3ccccc3)C(c3cccc([N+](=O)[O-])c3)C2)cc1 (stereo unspecified) | i | -1.3 |
| CC(C)(C)c1nc(CN2CCOCC2)cc(CN2CCOCC2)c1O | i | 0.34 |
| CCC(C)c1ccccc1NC(=O)CN(C)CCOc1ccc(Cl)cc1 (stereo unspecified) | i | 0.21 |
| Cc1ccc(C(C)C)c(OCC(=O)Nc2sc3c(c2C#N)CC(C)(C)NC3(C)C)c1 | i | -0.82 |
| Cc1oc(-c2cccc(Cl)c2)nc1CS(=O)(=O)CC(=O)NCc1ccco1 | i | -1.1 |
| CCOCC(=O)Nc1c(C(=O)Nc2ccccc2OC)oc2ccccc12 | i | -0.25 |
| Cc1ccc(NC(=O)c2nc[nH]c2C(=O)N[C@@H](C)c2ccccc2)cc1 | i | -0.77 |
| O=c1[nH]c(C2CCN(S(=O)(=O)c3ccc4c(c3)OCCO4)CC2)nc2c1nnn2Cc1ccccc1F | i | -0.82 |
| COc1cccc(C(=O)NC2CC(C)(C)NC(C)(C)C2)c1OC | i | 0.21 |
| Cc1ccc(NC(=O)CCc2nnc3ccc(NCc4ccco4)nn23)nc1 | i | 1.4 |
| CCc1[nH]nc(C(=O)N2CCCC(CCC(=O)N3CCN(c4ccccn4)CC3)C2)c1C (stereo unspecified) | i | 1.6 |
| COC(=O)c1ccc(NC(=O)c2ccccc2C(=O)Nc2ccc(C(=O)OC)cc2)cc1 | i | 1.2 |
| FC(F)(F)c1cnc(NNC(=S)Nc2cccnc2)c(Cl)c1 | i | -1.2 |
| O=C(CSc1ccc(Br)c2cccc(Cl)c12)Nc1ccc(S(=O)(=O)Nc2nccs2)cc1 | i | 1.6 |
| COc1cccc(/C=C/C(=O)OCC(=O)N2c3ccccc3NC(=O)C2(C)C)c1 | i | 0.16 |
| COc1cc(C(=S)N2CCCC2)cc(Cl)c1O | i | 1.2 |
| O=C(CCn1ccc2ccccc21)NC1CCCc2ccccc21 (stereo unspecified) | i | 1.5 |
| CCOC(=O)C1CCN(C(=O)CC(C)c2ccccc2)CC1 (stereo unspecified) | i | -0.83 |
| Cc1ccc(S(=O)(=O)N(CC(=O)NCc2ccc(F)cc2)C(=O)N2CCN(C)CC2)cc1 | i | -0.01 |
| NNC(=O)Cn1nnc(-c2ccc(C(F)(F)F)cc2)n1 | i | 1.6 |
| Cc1cccc(OCCn2c(S(=O)(=O)O)nc3ccccc32)c1 | i | 3.4 |
| COc1ccccc1Nc1c2c(nc3ccccc13)CCC2 | i | 0.17 |
| CCn1c2ccccc2c2cc(NC(=O)c3cc(OC)c(OC)c(OC)c3)ccc21 | i | -0.67 |
| COc1nc(OC)nc(N2CCC(C(=O)NC3CCCCCC3)CC2)n1 | i | 1 |
| CCN(Cc1ccccc1)C(=O)c1cc(COc2c(F)cccc2F)on1 | i | -0.44 |
| Cn1c(-c2sccc2OCc2cccc(C(F)(F)F)c2)n[nH]c1=S | i | 0.01 |
| CCCc1nc2n[nH]c(N)c2c2c1CCCC2 | i | 1.2 |
| CCCCC[C@H]1CN(CCc2ccccc2)C(=O)[C@@H]1CC(=O)NCc1ccc(OC)cc1 | i | -0.91 |
| Brc1cc2c(cc1Br)OCCOCCOCCO2 | i | -0.82 |
| Cc1ccc(S(=O)(=O)N(C)S(=O)(=O)c2ccc(C#N)cc2)cc1 | i | -0.52 |
| CC1(C)Cc2c(sc3nc(-c4ccccc4)oc(=O)c23)CO1 | i | 1 |
| COc1ccc(C(C(=O)NC2CCCCC2)N(C(=O)c2sc(C)nc2C)c2ccc(C(C)=O)cc2)cc1 (stereo unspecified) | i | -1.1 |
| O=C(Nc1ncccc1O)c1ccc(S(=O)(=O)N2CCCCCC2)cc1 | i | -0.43 |

More results
| canonical_smiles | KCNQ2 block | KCNQ2 block baseline |
| --- | --- | --- |
| Cc1c(NC(=O)c2ccc3c(c2)C(=O)N(Cc2ccco2)C3=O)cccc1C(=O)O | i | -0.82 |
| O=c1oc2ccccc2c(O)c1/C=N/c1ccccn1 | i | -1.6 |
| Cc1ccc(OCC(=O)N/N=C2/SCC(=O)N2Cc2ccccc2)cc1 | i | 0.08 |
| COc1ccc(C)cc1NC(=O)c1ccc2c(SCC(=O)O)c3c(nc2c1)CCCC3 | i | 0.47 |
| CCc1cc2c(=O)n3c(nc2s1)-c1[nH]c2ccc(OC)cc2c1CC3 | i | 0.06 |
| Cc1cccnc1NC(=O)c1cccc(S(=O)(=O)N2CCN(c3ccc(F)cc3)CC2)c1 | i | 1 |
| COc1ccccc1C(=O)NC(=S)Nc1ccccc1N1CCCC1 | i | 0.06 |
| CCOc1cccc(CNc2ccc(O)cc2)c1OCc1ccc(Cl)cc1 | i | 1.5 |
| CCOC(=O)C1C(=O)N(O)CC1c1cccc(Oc2ccccc2)c1 (stereo unspecified) | i | 4.9 |
| CC(C)(C)NC(=O)C(c1ccc(F)cc1)N(C(=O)CCC(=O)Nc1ccccn1)C1CCCC1 (stereo unspecified) | i | -0.04 |
